GIV Gai3 FP: blocks GIV peptide binding to rat Galpha-i3 | percent of control (FP), % (no concentration beside the values) | 0.42% of 210,000 active | Galpha-i3/FITC-GIV peptide fluorescence polarization, 90 min; hits give low values; scaled: aluminum fluoride 0%, vehicle 100% | AID 1224905;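 active = replicate mean at 85% of control or lower, very high polarization wells dropped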;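 note: wells of about 15 µL received 100 nL stock; the first replicate is given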
Target sequence (P08753 whole entry, looked up): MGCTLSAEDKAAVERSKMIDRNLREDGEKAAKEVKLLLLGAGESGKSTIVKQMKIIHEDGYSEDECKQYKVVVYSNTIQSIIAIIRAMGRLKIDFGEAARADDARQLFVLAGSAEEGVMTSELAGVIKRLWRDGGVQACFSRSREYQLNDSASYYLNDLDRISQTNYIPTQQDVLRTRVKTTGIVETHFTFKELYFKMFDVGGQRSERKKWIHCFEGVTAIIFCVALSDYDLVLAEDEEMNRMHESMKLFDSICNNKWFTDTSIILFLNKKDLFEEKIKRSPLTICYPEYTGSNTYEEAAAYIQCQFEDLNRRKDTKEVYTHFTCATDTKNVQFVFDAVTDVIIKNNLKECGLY
* = called active by the depositor.

Molecule,GIV Gai3 FP
COCCN1C(=O)/C(=C/c2c(NCCCn3ccnc3)nc3ccccn3c2=O)SC1=S,255.6
Cc1cc(NC(=O)c2ccccn2)ccc1-c1nc2ccccc2s1,103.5
COC(=O)c1oc2ccc(Cl)cc2c1N,105.1
CN(Cc1ccccc1)C(=O)N1c2ccccc2CCc2ccccc21,105.3
N#CCCn1c2ccc(Cl)cc2c2cc(Cl)ccc21,116.3
CCc1onc(C)c1C1CCCN1S(=O)(=O)c1ccc(NC(C)=O)cc1 (stereo not drawn),101.0
CC(C)N1CC2=C(OC(N)=C(C#N)C2c2ccsc2)/C(=C/c2ccsc2)C1 (stereo not drawn),120.7
Cc1noc(C)c1S(=O)(=O)N1CCCCCC1c1cccs1 (stereo not drawn),102.3
CN(C)c1ccc(C2(c3ccc(N(C)C)c4ccccc34)C=Cc3c(ccc4ccccc34)O2)cc1 (stereo not drawn),110.5
CC(C)c1nccn1S(=O)(=O)c1cc([N+](=O)[O-])ccc1Cl,103.5
O=C(NCCCN1CCCC1)c1ccc(Cn2c(=S)[nH]c3ccc(Br)cc3c2=O)cc1,114.2
COc1ccccc1Oc1ccnc(-c2ccc(C(=O)Nc3ccc(N4CCOCC4)cc3)cc2)n1,100.0
O=S(=O)(c1cccs1)N1CCC2(CC1)NCCN=C2NCc1cccc(F)c1,101.8
O=c1c2c3c(sc2ncn1Cc1cccc(Br)c1)CCCC3,107.1
CCn1nc(C)c2ccnc(N3CCC(C(=O)N4CCN(c5ccccc5Cl)CC4)CC3)c21,103.5
CCc1cc(C2CCCN2S(=O)(=O)c2cc(F)ccc2F)on1 (stereo not drawn),102.4
CC1CCN(S(=O)(=O)c2cc(-c3ccc(=O)n(C)n3)cs2)CC1,102.6
Cc1nc(N2CCCCC2)c2c(C)c(C(=O)Nc3ccc(F)cc3F)sc2n1,114.5
COC(=O)c1sccc1NC(=O)CN1CCCN(Cc2ccc(C)cc2)S1(=O)=O,107.5
O=C(Nc1ccc2c(c1)OCCO2)Nc1nnc(CC(=O)N2CCOCC2)s1,104.1
CC1(C)C2([N+](=O)[O-])CN3CC1([N+](=O)[O-])CN(C2)C3c1ccc(Cl)cc1 (stereo not drawn),117.7
CCOC(=O)c1ccc(N2C(=O)c3ccccc3NC2c2ccc(OCC(C)C)cc2)cc1 (stereo not drawn),113.3
COc1ccc(N2C(C(C)=O)=NN(c3ccccc3)C2c2cccs2)cc1 (stereo not drawn),105.8
C/C(=N\OCC(=O)Nc1oc(-c2ccccc2)c(-c2ccccc2)c1C#N)c1ccccc1,114.8
CC(C)CNC(=O)C1(c2ccc(NC(=O)c3ccc(Br)cc3)cc2)CC1,105.9
Cc1oc(-c2cccc(Cl)c2)nc1Cn1nnc(-c2nc(-c3ccncc3)no2)c1C,118.9
CC1(C)CC(=O)C2=C(C1)c1c(ccc3ccccc13)NC2c1cccc(O)c1 (stereo not drawn),110.4
Cc1ccc(S(=O)(=O)N2CCC3(CC2)NCCN=C3NCc2ccccc2)c(C)c1,101.8
Cc1nc2c(c3c1[nH]c1ccccc13)C(N)CC(C)(C)C2 (stereo not drawn),97.8
CCCNC(=O)N1CCC2(C1)C(=O)N(C)c1ccccc12 (stereo not drawn),110.3
Cc1cc(CN2CCCCC2)cc(C)c1O,109.3
O=c1/c(=C/c2cccc(Br)c2)sc2nc3cc(Br)cnc3n12,103.1
CC(C)CCNC(=O)N1CCC(N2CCN(Cc3ccc(F)cc3)C(=O)C2=O)CC1,95.7
c1ccc(Nc2nc(-c3ccc4c(c3)OCO4)cs2)nc1,103.6
CCOC(=O)c1sc2nc(SCC(=O)NCc3ccccc3Cl)n(Cc3ccco3)c(=O)c2c1C,112.1
O=C(Cn1cnc2sc3c(c2c1=O)CCCC3)NCCCC(=O)Nc1nc2ccccc2s1,104.1
N#Cc1cc2c(nc1SCC(=O)Nc1nc(-c3ccccc3)cs1)CCCC2,115.9
COC(=O)C1C(=O)NC(SCC(=O)Nc2cccc(F)c2)=C(C#N)C1c1ccccc1Cl (stereo not drawn),107.0
O=C(NC(c1ccc([N+](=O)[O-])cc1)c1cc(Cl)c2cccnc2c1O)c1cccnc1 (stereo not drawn),121.1
CCOc1ccc(NC(=O)COc2ccc(Cl)cc2-n2cnnc2)cc1,105.4
Cc1nc(N2CCN(Cc3ccc4c(c3)OCO4)CC2)c2cc(C)sc2n1,104.6
O=S1(=O)c2cccc3cccc(c23)N1Cc1ccc(F)cc1,114.2
CC(C)N1C(=O)C(C)(C(=O)N2CCN(c3ccccc3F)CC2)Oc2cccnc21 (stereo not drawn),101.1
CCCCCCNC(=O)c1c[nH]c2ccc(S(=O)(=O)N3CCc4ccccc4C3)cc2c1=O,102.8
O=C(CN1CCN(S(=O)(=O)c2ccccc2)CC1)Nc1nnc(-c2ccccc2)s1,103.0
COc1cc(NC(=O)c2sc3ncnc(N4CCN(c5ccccn5)CC4)c3c2C)cc(OC)c1OC,98.5
CSc1nc(N)nc(SCC(=O)Nc2cccc(C(F)(F)F)c2)c1C#N,107.0
COCc1cc(C)nc2sc3c(=O)n(-c4ccc([N+](=O)[O-])cc4)nnc3c12,106.9
Cc1cc(C2CCCN2C(=O)Cn2nc(C(F)(F)F)c3c2CCCC3)on1 (stereo not drawn),103.7
CCN(CC)c1ccc(C2NC(=O)NC(C)=C2C(=O)OCc2ccc3c(c2)OCO3)cc1 (stereo not drawn),107.2

Single entries from above.
`CCOc1ccc(NC(=O)COc2ccc(Cl)cc2-n2cnnc2)cc1` | GIV Gai3 FP: 105.4
`CC1(C)CC(=O)C2=C(C1)c1c(ccc3ccccc13)NC2c1cccc(O)c1` (stereo not drawn) | GIV Gai3 FP: 110.4
`CCCCCCNC(=O)c1c[nH]c2ccc(S(=O)(=O)N3CCc4ccccc4C3)cc2c1=O` | GIV Gai3 FP: 102.8
`CCN(CC)c1ccc(C2NC(=O)NC(C)=C2C(=O)OCc2ccc3c(c2)OCO3)cc1` (stereo not drawn) | GIV Gai3 FP: 107.2

Other compounds:
Molecule,GIV Gai3 FP
COc1ccc(C2(CNC(=O)C(c3ccccc3)c3ccccc3)CCCC2)cc1OC,110.5
O=C1C2=C(Nc3ccccc3SC2c2cccc([N+](=O)[O-])c2)c2ccccc21 (stereo not drawn),103.2
COc1cccc(NS(=O)(=O)c2cc(C(=O)N3CCN(C)CC3)ccc2NCCc2ccc(Cl)cc2)c1,109.5
CC(=O)Nc1cc2c(cc1[N+](=O)[O-])OCCO2,117.0
Cn1c(=O)[nH]c2c(C(=O)N3CCCC3)snc2c1=O,94.9
Cc1ccc(-c2nc(CN3CCN(C(=O)Nc4cc(C)cc(C)c4)CC3)c(C)o2)cc1,102.3
CC(=O)Nc1sc2c(c1-c1nc3ccccc3s1)CCN(C(C)C)C2,-3.2*
O=C(c1ccc2c(c1)OCCO2)N1CCN(c2nc3c(F)cccc3s2)CC1,100.5
Cc1nn(-c2ccc3nncn3n2)c(C)c1CCC(=O)NCc1ccc2c(c1)OCO2,101.5
Cc1cc2nc3s/c(=C\c4cc(Cl)ccc4OCc4c(F)cccc4Cl)c(=O)n3c2cc1C,106.3
O=C(Nc1cc(-c2ccccc2)nn1-c1ccccc1)c1ccccc1,100.9
S=C1NC2(CCCCCC2)NN1c1ccc(Cl)cc1,116.4
O=C(Cc1cccs1)NC1CCN(c2ccc(N3CCSCC3)nn2)CC1,103.4
CCCOc1ccc(-c2nn3c(=O)c(NC(=O)c4ccccc4)cnc3o2)cc1,104.4
COc1ccc(/C=C/c2nc(-c3ccc4c(c3)nnn4C3CCCC3)no2)cc1OC,102.5
COc1cc(C2Nc3cccc4cccc(c34)N2)cc(OC)c1OC(C)=O,118.8
CCCNC(=O)N1c2ccccc2NC2=C(C(=O)CC(C)(C)C2)C1c1ccc(OC)cc1 (stereo not drawn),103.5
CCCCNC(=O)C1CCCN(S(=O)(=O)Cc2ccccc2Cl)C1 (stereo not drawn),101.3
CCCCC(C(=O)Nc1ccccc1Cl)N1C(=O)C2C3c4ccccc4C(c4ccccc43)C2C1=O (stereo not drawn),114.0
CC1(C)CC2(CC(c3ccccc3)Oc3cc(O)c(Cl)cc32)NC(=S)N1 (stereo not drawn),107.0
Cc1cc2c(cc1S(=O)(=O)N(C)CC(=O)NC(C)(C)C)OC(C)C(=O)N2 (stereo not drawn),100.1
Clc1ccc(CCNCc2cn3c(-c4cccc(Br)c4)nnc3s2)cc1,105.4
CCCC1C(c2ccccc2)NC(c2ccccc2)C(C)C1(C)O (stereo not drawn),123.0
O=C(CSc1nc(=O)n(Cc2ccncc2)c2c1CCC2)Nc1nc2ccccc2s1,99.8
CCCNC(=O)CC1CCN(C(=O)c2cc3ccccc3[nH]2)CC1,101.5
Cc1c(C)c(C)c(C(=O)CC2(O)C(=O)Nc3ccccc32)c(C)c1C (stereo not drawn),102.1
Cc1[nH]n(-c2ccccc2)c(=O)c1C(c1ccccc1O)c1c(C)[nH]n(-c2ccccc2)c1=O,67.0*
COc1cccc(NS(=O)(=O)c2cc(C(=O)N3CCC(C)CC3)ccc2NCc2ccccc2OC)c1,110.5
COc1cc(C2C(C(=O)OCC(C)C)=C(C)NC3=C2C(=O)CC(c2cccs2)C3)cc(OC)c1OC (stereo not drawn),106.5
Cc1cc2c(cc1S(=O)(=O)N1CCCCC1)OCC(=O)N2Cc1noc(C2CC2)n1,98.8
O=C(CSc1nc2ccsc2c(=O)n1Cc1ccco1)Nc1nccs1,107.7
Cc1c(CC(Cl)(Cl)Cl)c2c(n1-c1ccc([N+](=O)[O-])cc1)CCCC2=O,111.4
CC1CCC2(CC1)Nc1ccccc1NC2=NCc1ccc(F)c(Cl)c1 (stereo not drawn),93.8
CCOC(=O)c1ccc(N2C(=O)CSC23C(=O)Nc2ccccc23)cc1 (stereo not drawn),105.7
CNC(=O)c1cc(C2CC2)[nH]n1,97.0
Cc1cc2c(cc1C(N)=O)OCCCO2,107.1
Cc1ccc(-n2[nH]c(C)c(C=Nc3ccc4nc(C)[nH]c4c3)c2=O)cc1,106.1
COC(=O)c1ccc2c(=O)n(Cc3ccc(C(=O)NCCCN4CCOCC4)cc3)c(=S)[nH]c2c1,105.6
O=C(NC1CC1)c1nc(-n2cnnc2)ccc1Br,106.2
COCCNc1nc(SCc2cccc(F)c2)nc2ccccc12,104.7
Cc1ccc(-c2nc(CN3CCCC(C(=O)Nc4cccc(C)c4)C3)no2)cc1 (stereo not drawn),104.5
COc1ccc(CCNC(=O)c2c[nH]c3ccc(S(=O)(=O)N4CCC5(CC4)OCCO5)cc3c2=O)cc1OC,110.7
COc1ccc(C2NC(C(=O)O)Cc3c2[nH]c2ccccc32)c(OC)c1OC (stereo not drawn),98.9
Cc1csc(-c2cc(S(=O)(=O)N3CCCc4ccccc43)c(C)s2)n1,108.5
N#CC1=C(N)n2c(s/c(=C\c3ccccc3C(F)(F)F)c2=O)=C(C#N)C1c1ccccc1C(F)(F)F (stereo not drawn),97.9
CC(C)C(=O)N1c2ccccc2-c2c(ssc2=S)C1(C)C,109.3
O=C(NC1CCN(C(=O)C2CCC2)C1)C1CCC1 (stereo not drawn),98.6
CC1(C)OC2OC(C(=O)NNC(=O)c3ccccc3)C3OC(C)(C)OC3C2O1 (stereo not drawn),102.6
O=S(=O)(c1ccccc1)N1CCC2(CC1)NCCN=C2NCc1ccccc1Cl,99.8
O=S(=O)(c1cc(F)ccc1F)N1CCCN(c2nc3cccnc3s2)CC1,103.0

Laid out differently: 2 of the compounds above
N#CC1=C(N)n2c(s/c(=C\c3ccccc3C(F)(F)F)c2=O)=C(C#N)C1c1ccccc1C(F)(F)F (stereo not drawn)
- GIV Gai3 FP = 97.9

CC(C)C(=O)N1c2ccccc2-c2c(ssc2=S)C1(C)C
- GIV Gai3 FP = 109.3

Following part
Molecule,GIV Gai3 FP
CCCCN(CC)S(=O)(=O)c1ccc(F)c(C(=O)Nc2cccc(C)c2C)c1,114.3
CCc1onc(C)c1C1CCCN1C(=O)Nc1ccc2c(c1)OCO2 (stereo not drawn),100.8
COC(=O)C1=C(C(=O)OC)SC(=C2C(=S)C(C)(C)N(C(=O)Cc3ccccc3)c3ccc(OC)cc32)S1,106.3
O=C(NC1CCCC1)c1ccc2c(c1)OCCCO2,100.6
CCOC(=O)N1CCN(C(=O)c2c[nH]c3ccc(S(=O)(=O)N(C)c4ccccc4C)cc3c2=O)CC1,102.6
COc1ccc(-n2nc3c(c2NC(=O)c2cc(OC)c(OC)c(OC)c2)CS(=O)(=O)C3)cc1,122.5
CCOc1ccc(NC(=O)C2=C(C)NC(=O)NC2c2cccc([N+](=O)[O-])c2)cc1 (stereo not drawn),98.9
O=C(C1CCN(c2cncnc2N2CCOCC2)CC1)N1CCN(C2CCCCC2)CC1,96.9
N#Cc1c(C(F)(F)F)cc(-c2cccs2)nc1SCC(=O)N1CCOCC1,112.7
Cc1sc(-c2cc(C(F)(F)F)on2)cc1S(=O)(=O)N1CCCC1,98.5
CCc1ccc2c(c1)[C@H]1OCCC[C@H]1C(c1ccncc1)N2 (stereo partly drawn),98.4
COc1ccc(NC(=O)Cn2c(=O)n(C)c(=O)c3cnn(-c4ccccc4)c32)cc1OC,109.6
CCOCCOC(=O)c1cc2c(C)nn(-c3ccc(F)cc3)c2s1,103.5
CN(CC(=O)Nc1ccc(Cl)cc1)S(=O)(=O)c1cc2c(cc1Cl)NC(=O)CO2,105.4
CCOC(=O)C1=C(C)NC2=C(C(=O)C(C(=O)OCC)C(c3cccc(OC)c3)C2)C1c1ccc(F)cc1 (stereo not drawn),99.3
O=C(NCc1nc2cccnc2n1Cc1ccc(F)cc1)c1ccc2c(c1)OCO2,109.0
CCCCNC(=O)c1nnn(-c2ccc(C)cc2)c1-c1cccnc1,97.8
O=C(Cc1nnc(NC(=O)Nc2ccc(Cl)cc2)s1)NCc1ccccc1,105.2
O=S(=O)(c1ccc(-c2nnc(C3CCC3)o2)o1)N1CCN(C2CCCCC2)CC1,103.3

Not a retest: entries from further up.
Molecule,GIV Gai3 FP
CCOC(=O)C1=C(C)NC2=C(C(=O)C(C(=O)OCC)C(c3cccc(OC)c3)C2)C1c1ccc(F)cc1 (stereo not drawn),99.3
O=C(NCc1nc2cccnc2n1Cc1ccc(F)cc1)c1ccc2c(c1)OCO2,109.0
CCCCNC(=O)c1nnn(-c2ccc(C)cc2)c1-c1cccnc1,97.8
O=C(Cc1nnc(NC(=O)Nc2ccc(Cl)cc2)s1)NCc1ccccc1,105.2
O=S(=O)(c1ccc(-c2nnc(C3CCC3)o2)o1)N1CCN(C2CCCCC2)CC1,103.3

A portion of the library, so the mix of outcomes need not match the whole.
